Screening data as filed in PubChem.
Polio RdRp inh: poliovirus RNA polymerase inhibition. P03300. poliovirus polymerase elongation, fluorescence polarization; hits give low values. % elongation, % (compound at 16.7 µg/mL). 150,000 compounds, 0.66% hits. AID 588519; in the data active = % elongation below about 90%; also: some results filed as inactive read as strong as hits
Target sequence (P03300 1749-2209 limits assumed): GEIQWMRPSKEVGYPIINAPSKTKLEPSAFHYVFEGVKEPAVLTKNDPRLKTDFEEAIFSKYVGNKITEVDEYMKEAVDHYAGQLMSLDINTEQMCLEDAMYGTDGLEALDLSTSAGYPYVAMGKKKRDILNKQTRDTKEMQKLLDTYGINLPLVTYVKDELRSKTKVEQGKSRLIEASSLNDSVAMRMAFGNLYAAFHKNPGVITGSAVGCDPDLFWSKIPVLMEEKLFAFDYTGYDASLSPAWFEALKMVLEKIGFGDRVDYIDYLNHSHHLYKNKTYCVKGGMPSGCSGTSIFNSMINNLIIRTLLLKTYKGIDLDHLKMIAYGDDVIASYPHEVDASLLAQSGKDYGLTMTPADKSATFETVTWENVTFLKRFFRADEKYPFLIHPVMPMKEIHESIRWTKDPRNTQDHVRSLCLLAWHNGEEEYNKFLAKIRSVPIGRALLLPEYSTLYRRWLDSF
MenB inh: Mtb MenB enzyme inhibition; 100,000 compounds, 0.43% hits; AID 540299; inhibition, %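 (about 12 µg/mL by stock and volumes)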; MenB enzyme assay, absorbance read-out; some hits fall short of the stated cut; P9WNP5;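 active = mean of two replicates above 30%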;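 also: 0% = no compound and 100% = wells with inactive enzyme; the first replicate is given; strong numbers were not always called active; inactives centre near -10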
Mtb MbtI inh: blocks the Mycobacterium tuberculosis siderophore enzyme MbtI; P9WFX0; purified MbtI enzyme, fluorescence intensity read-out; inhibition, %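 (about 17 µg/mL by stock and volumes)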; 100,000 compounds, 0.89% hits;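 active = above 50% in both replicates, above 80% if mildly self-fluorescent; inactive = the rest, strongly fluorescent compounds included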;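 also: 0% = mean of negative and 100% = mean of positive controls; one replicate is shown; some compounds called inactive have numbers as strong as hits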
Target sequence (P9WFX0 whole entry, looked up): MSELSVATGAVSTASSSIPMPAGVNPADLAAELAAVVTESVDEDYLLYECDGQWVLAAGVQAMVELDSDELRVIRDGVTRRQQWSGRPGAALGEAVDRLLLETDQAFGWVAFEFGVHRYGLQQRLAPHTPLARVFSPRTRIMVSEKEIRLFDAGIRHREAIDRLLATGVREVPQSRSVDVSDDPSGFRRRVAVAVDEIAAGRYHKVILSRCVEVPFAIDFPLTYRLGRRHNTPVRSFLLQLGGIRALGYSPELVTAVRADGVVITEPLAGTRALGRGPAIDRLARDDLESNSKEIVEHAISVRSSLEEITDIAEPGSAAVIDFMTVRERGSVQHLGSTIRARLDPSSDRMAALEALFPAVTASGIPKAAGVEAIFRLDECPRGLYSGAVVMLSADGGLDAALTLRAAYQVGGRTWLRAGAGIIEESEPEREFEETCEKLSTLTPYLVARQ
Polio RdRp inh intensity: second read-out of Polio RdRp inh, no call of its own (marks repeat the call); % elongation; measured here: total intensity read-out; formula for this scale not given here;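 total fluorescence in place of polarization; lower means less elongation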
The depositor's hits bear a star; nt = no result given.

compound,Mtb MbtI inh,Polio RdRp inh intensity,MenB inh,Polio RdRp inh
Cc1cc(C(=O)Cn2ccsc2=N)c(C)n1C1CC1,-2,102,0,100
O=c1c(F)cn(CC2CC(c3ccccc3)=NO2)c(=O)n1CC1CC(c2ccccc2)=NO1 (stereo unspecified),-2,110,1,104
CCC1(CC)NC(=S)N(Nc2ccccc2)C1=O,-20,103,-10,99
Cc1ccc(CNC(=O)CSc2nc3ccccc3c(=O)n2-c2ccccc2)cc1,-4,103,nt,104
CCC1CCCCN1C(=O)c1cnn2cccnc12 (stereo unspecified),-9,100,-32,103
O=C(Nc1ccccc1)c1cccc(-c2nnc(-c3ccccc3)o2)c1,-18,104,-23,101
FC(F)(F)c1cc(-c2ccco2)nc(-n2cccn2)n1,67,95,-22,101
CC(=O)NCc1ccc(C(=O)CSc2n[nH]c(-c3cccs3)n2)s1,21,121,7,110
O=C(COC(=O)c1ccc(I)cc1)NC1CCCCC1,0,109,nt,102
CCCCCCC1C(C#N)=C(N)OC2=C1C(=O)CC(C)(C)C2 (stereo unspecified),6,103,-2,100
CC1CCN(C(=O)CCn2ccc3cc(S(=O)(=O)N4CCCCC4)ccc32)CC1,6,98,7,100
COc1cc(OC)c(OC)cc1CNc1ccc2[nH]c(=O)[nH]c2c1,-16,101,11,100
Cc1nn(CC(=O)N(C)C)c(C)c1S(=O)(=O)N(C)C,-2,109,9,104
O=C(CSc1nc2c(c(=O)n1CCc1ccccc1)SCC2)N1CCCC1,4,101,-28,106
Cc1cccc(C(=O)N=Nc2c(O)[nH]c3ccc(C)cc23)c1,-20,104,-61,102
Cc1ccc(-n2sc3ccccc3c2=O)cc1,101*,104,-52,102
O=C1CSc2ccc(C(=O)N3CCN(c4ccc(F)cc4)CC3)cc2N1,13,107,-13,107
CCc1ccc(NC(=O)N(Cc2ccco2)C2CCN(Cc3ccccc3)CC2)cc1,-5,104,-5,101
Cc1nc2ccc(NS(=O)(=O)c3ccc(F)cc3)cc2s1,-2,112,-22,110
O=S(=O)(Nc1ccccc1)c1ccc(Cl)cc1,7,107,-14,102
O=C(c1cnn(C(=S)Nc2ccccc2)c1)c1cc(Cl)ccc1O,10,98,nt,104
c1ccc(CN2CCC(Nc3ncnc4c3oc3ccccc34)CC2)cc1,4,100,5,101
Cn1cccc1Cc1nnc(SCC(=O)NC2CCCCC2)n1CCc1ccccc1,3,107,-15,100
Cc1ccc(S(=O)(=O)NC2=NCN(c3ccc(Cl)cc3)CN2)cc1,nt,111,-10,104
CCCc1ccc(S(=O)(=O)Nc2ccc(C)c(NS(C)(=O)=O)c2)cc1,-15,106,-22,105
CC(C)(CO)NS(=O)(=O)c1ccc2c(c1)oc(=O)c1cc(S(=O)(=O)NC(C)(C)CO)ccc12,40,98,-22,102
COc1cc(C(=O)O)ccn1,6,99,-52,102
Cc1cc(C)n(-c2nc(-c3ccccc3)nc3c2COC(C)(C)C3)n1,-1,103,1,103
O=C(Cn1nnc(N2CCOCC2)n1)c1ccccc1,-15,109,-9,108
Cn1c(O)c(/C=N/N(c2ccccc2)c2ccccc2)c2ccccc21,-12,106,nt,102
O=C(c1cc2nc3c(c(C(F)(F)F)n2n1)CCc1ccccc1-3)N1CCCC1,nt,114,4,106
O=C(CN1C(=O)CSC1=O)Nc1cccc(Cl)c1,-2,100,-1,102
CCC(CC)NC(=O)c1ccc(OC)cc1OC,nt,100,2,96
O=C(/C=C/c1cn(-c2ccccc2)nc1-c1ccccc1)OCC(=O)N1CCN(C(=O)c2ccco2)CC1,23,100,-27,101
CC1CCCCC1N1CCC(CNC(=S)Nc2cccc(Cl)c2)C1 (stereo unspecified),0,101,-3,101
CC(C)Oc1ccc2ccc(=O)oc2c1,88,103,3,103
O=C(NCCc1ccccc1)C1CCCC1,0,103,-19,101
Cc1cc2nc(CN3CCCCC3)cc(=O)n2o1,7,105,-30,102
Cn1cccc1C(=O)NC(=O)CSc1nc2ccccc2s1,3,106,-15,105
CCOC(=O)c1cnc2[nH]c3ccccc3n2c1=O,88,101,-49,103
CSc1ccccc1NC(=O)CN1CC(C)OC(C)C1 (stereo unspecified),-13,93,-28,101
COc1ccc(CNCCNC(=O)c2ccncc2)c(OC)c1OC,-3,98,-64,106
CCn1c(SCC(=O)N(C2CCCCC2)C2CCCCC2)nnc1-c1cc2cccc(OC)c2o1,-8,104,-18,101
CCCCN1C(=O)Cc2c1nc(N)c1c(N)nc(N(CCC)CCC)c(C#N)c21,-113,108,3,110
O=C(NCCCn1ccnc1)c1noc2c1CCCC2,-14,106,-5,102
CN1CCN(c2ccccc2NC(=O)Cc2cn(C)c3ccccc23)CC1,-1,106,-18,102
O=C(Cn1c(=O)n(CC2CS2)c2ccccc21)c1ccccc1 (stereo unspecified),7,100,-24,99
CN(Cc1ccccc1)C(=O)CCCn1c(=O)c2cccn2c2cccnc21,-8,102,-3,103
Cc1ccc2nc(NC(=O)C3CCCC3)sc2c1,-9,103,1,100
Cc1ccc(-c2cc(C(=O)Nc3nccs3)c3ccccc3n2)o1,-41,104,-12,102
Cc1cc(N2CCCC2)nc2ccc(NC(=S)NCCN3CCOCC3)cc12,-40,102,-7,101
CSc1ccccc1NC(=O)C(C)NS(=O)(=O)c1ccc(C)cc1 (stereo unspecified),-13,103,-1,102
COC(=O)NCCCN1CCCC1=O,-13,103,8,102
NC(=S)N/N=C/c1ccc(N2CCOCC2)s1,89*,106,-266,81
Cc1ccc(C(=O)Nc2ccc3c(c2)OCO3)cc1,nt,105,-18,99
CCOc1cc2c3c(c1)C1(Nc4ccccc4CO1)C(=O)N3C(C)(C)CC2C (stereo unspecified),-6,102,-1,98
N#Cc1c(-c2ccccc2)c(-c2ccccc2)nn(CC(=O)NN)c1=O,-8,110,12,102
CNC(=O)CN(C1CCCCC1)S(=O)(=O)c1ccc(C)cc1,-12,102,26,101
Cn1/c(=N/N=C2\CC3CC=CC23)sc2ccccc21 (stereo unspecified),-5,113,-7,104
CCOC(=O)C1(c2ccccc2)CCN(C(=O)c2ccccc2O)CC1,nt,115,2,104

The final three compounds of the section above are carried over, then new ones follow:
compound,Mtb MbtI inh,Polio RdRp inh intensity,MenB inh,Polio RdRp inh
CNC(=O)CN(C1CCCCC1)S(=O)(=O)c1ccc(C)cc1,-12,102,26,101
Cn1/c(=N/N=C2\CC3CC=CC23)sc2ccccc21 (stereo unspecified),-5,113,-7,104
CCOC(=O)C1(c2ccccc2)CCN(C(=O)c2ccccc2O)CC1,nt,115,2,104
Cc1ccc(OCc2nn(C)c3ccccc23)cc1,nt,111,9,104
Cc1cccc2c(=O)c(N)c[nH]c12,91,101,0,97
Clc1ccc(-n2ncnc2-c2ccc3c(c2)OCO3)cc1,11,98,9,103
CCOC(=O)C1CCC(C(=O)OCC)N1C(=O)Nc1ccc(Cl)cc1 (stereo unspecified),0,107,-11,109
CC(=O)N1CCN(C2=NC(=O)/C(=C\c3ccc(-c4ccc(Cl)c(Cl)c4)o3)S2)CC1,1,nt,3,nt
O=C(CSc1nnc(-c2cccs2)n1-c1ccccc1)NCC1COc2ccccc2O1 (stereo unspecified),6,103,-15,97
COC(=O)c1ccc(NC(=O)C(C)Sc2nc3c(c(=O)[nH]2)CCCC3)cc1 (stereo unspecified),81*,105,-6,102
N#C/C(=C(/O)C1CC1)c1nc2ccccc2s1,92*,107,nt,101
CN(C)Cc1nc2ccccc2c(=O)n1Cc1nc(C(C)(C)C)cs1,-8,92,-31,102
CCn1cc(CCC(=O)O)c2ccccc21,125,102,-9,100
COC(=O)C1(C)NC2(CCCCC2)Cc2ccccc21 (stereo unspecified),nt,102,-19,99
CC(OC(=O)CCc1c[nH]c2ccccc12)C(=O)c1ccccc1 (stereo unspecified),nt,111,-10,105
CCS(=O)(=O)c1ccc2oc(=O)c(/C=C(\O)c3ccco3)nc2c1,13,101,9,101
Cc1nnc(SCC(=O)Nc2sc3c(c2C(N)=O)CCC3)n(N)c1=O,20,96,-28,102
N#CCC(=O)NCc1ccccn1,1,99,-22,102

A draw from above in order of molar mass, descending.
compound,Mtb MbtI inh,Polio RdRp inh intensity,MenB inh,Polio RdRp inh
O=C(CSc1nnc(-c2cccs2)n1-c1ccccc1)NCC1COc2ccccc2O1 (stereo unspecified),6,103,-15,97
c1ccc(CN2CCC(Nc3ncnc4c3oc3ccccc34)CC2)cc1,4,100,5,101
CN(C)Cc1nc2ccccc2c(=O)n1Cc1nc(C(C)(C)C)cs1,-8,92,-31,102

Later entries
compound,Mtb MbtI inh,Polio RdRp inh intensity,MenB inh,Polio RdRp inh
Cc1noc(/C=C/N(C)C)c1S(=O)(=O)NCCN1CCC(Cc2ccccc2)CC1,-8,95,-23,103
O=C(COC(=O)CCC1CCCC1)NC1CCCCCC1,-25,105,-16,103
O=C(CSc1cccc[n+]1[O-])NC(=O)NCc1ccccc1,3,101,-7,103
S=c1[nH]nc(CCCOc2ccc(Cl)cc2Cl)o1,90*,100*,-39,87*
Cc1cccc(N(C)S(=O)(=O)c2cc(Br)cnc2N)c1,-26,101,-20,104
CNC(=O)c1cccc(Oc2cccc(Cl)n2)c1,nt,111,-13,108
C/C(N)=C(/C#N)C(=O)CSc1ccc2c(c1)OCCO2,9,95,-27,102
CCc1ccc(C(=O)NCc2cccs2)cc1,-2,108,-25,106
Fc1ccc(NC(=S)N2CCCCC2)cc1,-2,102,-7,100
O=C(CSc1ccc(Br)cc1)N1CCN(C(=O)c2ccco2)CC1,-1,99,nt,100
Cc1ccc(N2C3CCCCCN3CC2(O)c2ccc(Cl)cc2)cc1 (stereo unspecified),-5,95,-12,98
c1cc(CN2CCCCCCC2)cs1,-3,102,21,100
Cc1ccc2c(c1)c1c3n2CCN(C(N)=O)C3CCC1 (stereo unspecified),30,99,-29,105
O=C(Cc1ccc2c(c1)OCCO2)N/N=C/c1ccc[nH]1,22,104,-3,103
Cc1cc(C)c2ccc(NN)nc2c1O,-2,106,-50,103
COc1cccc(C(=O)COc2nc(-c3cccs3)cc(-c3ccco3)c2C#N)c1,-15,100,-27,103
CC(C)[C@H](NC(=O)c1ccccc1)C(=O)N1CCc2ccccc21,5,95,15,102
CCOC(=O)Cc1nn(Cc2ccccc2)c(=O)c2ccccc12,7,102,-23,103
Cc1ccc(C(O)COC2=NCNc3cc(Cl)ccc32)cc1 (stereo unspecified),16,104,8,103
O=C(CSc1ncnc2c1sc1ccccc12)NC1CCCCC1,-2,103,3,103
O=C(O)c1cccnc1SCC(=O)N1c2ccccc2CCc2ccccc21,19,102,-21,104
COC(=O)C(C)N(c1ccc(C)cc1)S(C)(=O)=O (stereo unspecified),-4,103,-9,102
Cc1ccccc1-c1nc(CSc2nc3c(c(=O)[nH]2)CCC3)c(C)o1,64,105,-20,104
Nc1nc2n(n1)C(=O)CC(c1ccccc1)N2 (stereo unspecified),4,102,1,104
O=C(Cn1nc(-c2ccco2)ccc1=O)NCCc1ccccc1,90,107,-2,106
N#CC1=C(N)C(C#N)(C#N)C(C2C=CCCC2)C2CCCC=C12 (stereo unspecified),52,102,-17,101
CC(C)Nc1cc(Br)c2noc3c2c1C(=O)c1ccccc1-3,0,194,10,71
O=C(N/N=C/c1ccccc1O)C1(O)c2ccccc2-c2ccccc21,13,102,-81,102
CC(=O)Oc1ccccc1C(=O)Nc1ccc(OC(F)F)cc1,-333,102,-16,101
CCN(CC)c1ccc(NC(=O)COC(=O)Cc2ccc(Cl)cc2)cc1,-10,96,nt,101
O=C(COC(=O)Cn1cnc2ccccc2c1=O)NCc1ccccc1Cl,1,102,-76,98
O=CN1CCN(c2nc(-c3ccccc3)cs2)CC1,2,102,-5,105
CCOC(=O)c1c(-c2ccc(OC)cc2)oc2ccc(OCC)cc12,117,103,-8,102
CC(=O)OCC(=O)CC12CC3CC(CC(C3)C1)C2,16,104,-6,101
CC1(C)CC(=O)C=C(NNC(=O)COc2ccccc2)C1,17,101,-14,99
COc1ccc2c(c1)c(OC)[n+](C)c1c3cc4c(cc3ccc21)OCO4,nt,100,-8,105
CCNc1nc(OC)nc(SCC(=O)OC)n1,0,99,-65,101
COc1ccc(N2CCN(C(=O)c3cccs3)CC2)cc1,-7,99,-40,103
Cc1ccc(NC(=O)c2c(-n3c(C)ccc3C)sc3c2CCCC3)cc1,4,108,-23,104
Cc1nc(NC(=S)NC(=O)c2ccc(-c3cccc(Cl)c3)o2)ccc1Br,-2,101,-2,102
CCOc1ccc(CN(C)CC(O)COCc2ccc(OC)cc2)cc1OC (stereo unspecified),4,109,-12,104
CCOC(=O)CSc1cc(Nc2ccc(Br)cc2)ncn1,11,113,2,103
Cc1cc(=O)[nH]c(SCC2COC3(CCCCC3)O2)n1 (stereo unspecified),-2,108,-7,100
Cc1c(C)c2ccc(OCC(N)=O)cc2oc1=O,nt,96,1,102
Cc1cc(C)nc(N=Nc2cc(C(C)(C)C)c(O)c(C(C)(C)C)c2)n1,-7,100,-223,100
